HCMV NEC inh: inhibitors of HCMV UL50-UL53 nuclear egress complex interaction. inhibition, % (test concentration not listed). 190,000 compounds, 0.15% hits. AID 1918969. HTRF UL50-UL53 interaction, normalized percent inhibition;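 active means both replicates at 50% or more, plus weaker picks with an unusually low signal ratio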;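 further: stock transfer was 100 nL into about 20 µL; 0% = negative control wells and 100% = wells with untagged competitor protein; inactives centre near -12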
GIV Gai3 FP: GIV-Galpha-i interaction inhibition; AID 1224905; 210,000 compounds, 0.42% hits; P08753; Galpha-i3/FITC-GIV peptide fluorescence polarization, 90 min; hits give low values; scaled: aluminum fluoride 0%, vehicle 100%; percent of control (FP), % (concentration not given with the values);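 active means replicate mean at 85% of control or lower, very high polarization wells dropped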;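 further: wells of about 15 µL received 100 nL stock; the first replicate is given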
Target sequence (P08753 whole entry, looked up): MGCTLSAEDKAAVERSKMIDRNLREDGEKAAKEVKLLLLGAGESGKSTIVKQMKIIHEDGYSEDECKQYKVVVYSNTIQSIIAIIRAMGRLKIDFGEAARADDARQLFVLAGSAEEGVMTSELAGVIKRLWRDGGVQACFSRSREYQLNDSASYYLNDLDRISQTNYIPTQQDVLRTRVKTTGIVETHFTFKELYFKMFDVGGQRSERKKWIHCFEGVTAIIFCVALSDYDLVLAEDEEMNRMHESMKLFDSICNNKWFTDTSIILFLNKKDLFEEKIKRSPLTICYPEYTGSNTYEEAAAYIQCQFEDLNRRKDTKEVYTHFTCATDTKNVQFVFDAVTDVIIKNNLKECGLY
Sa growth 42C: S. aureus growth inhibition; S. aureus RN4220 growth, OD600, 20 h, 42 °C; hits give low values; relative growth, % (no concentration beside the values); 170,000 compounds, 0.53% hits; AID 720641;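 active means growth at 42 °C up to 50% and 20 or more points under that at 30 °C, or under 10% at both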;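 further: 300 nL library stock went into each well; scaled to the means of positive and negative controls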
Sa growth 42C second temp: further read-out of Sa growth 42C, marked with its call; relative growth, %; measured here: growth at 30 °C;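 optical density after 20 h as mean of two plates; 100% = untreated growth and lower means inhibition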
The depositor's hits bear a star; . = not tested or not shown; & = joins results of further samples.

SMILES	HCMV NEC inh	GIV Gai3 FP	Sa growth 42C	Sa growth 42C second temp
O=C(C1CCCO1)N(Cc1ccccc1)c1ccccc1 (centres undefined)	-2	107	104	103
Cc1[nH]c(SCC(=O)Nc2cccc(C#N)c2)nc1Cc1ccccc1	-23	.	81	89
C/C(CC(C)(C)C1CCCCC1)=N\O	-31	.	97	93
Cc1cc(C=C(C#N)C#N)c(C)n1-c1ccc(S(N)(=O)=O)cc1	-3	104	97	72
CCCN1C(=O)SC(CC(=O)Nc2ccccc2)C1=O (centres undefined)	-7	103	94	74
O=C(NCCC1=CCCCC1)C1CCCCN1S(=O)(=O)c1ccc(Cl)cc1 (centres undefined)	-17	104	.	.
O=C(NCc1ccccn1)C1C2C=CC(C2)C1C(=O)Nc1ccc(F)cc1 (centres undefined)	11	100	85	120
CCN(CC)c1nccs1	-15	.	82	84
CCOC(=O)N(C)CCc1cc2c(cc1C)OCO2	-7	.	106	87
Cc1noc(C(=O)N2CCCc3ccccc32)c1Cl	.	102	114	98

The final 3 compounds of the section above are carried over, then new ones follow.
SMILES	HCMV NEC inh	GIV Gai3 FP	Sa growth 42C	Sa growth 42C second temp
CCN(CC)c1nccs1	-15	.	82	84
CCOC(=O)N(C)CCc1cc2c(cc1C)OCO2	-7	.	106	87
Cc1noc(C(=O)N2CCCc3ccccc32)c1Cl	.	102	114	98
CCCCN=C1SCC(c2cc3ccccc3o2)=NN1C	-46	.	98	80
CC(=O)Nc1ccc(NC(=O)c2cc(C)nc3c2c(=O)n(C)c(=O)n3C)cc1	-18	103	.	.
CC(C)(C)C1C/C(=C\c2ccc3c(c2)OCO3)C(=O)/C(=C/c2ccc3c(c2)OCO3)C1 (centres undefined)	-1	.	85	85
O=C(OCCN1C(=O)c2cccc3c(N4CCOCC4)ccc(c23)C1=O)c1ccc([N+](=O)[O-])cc1	-10	113	.	.
O=C1CC(c2ccccc2)C(=O)N1 (centres undefined)	14	.	100	101
CCOC(=O)c1cccc(CSC(=N)N)c1	-10	102	108	95
CN1C(=O)c2cc(NC(=O)c3ccc4c(c3)OCO4)ccc2N2CCN=C12	-33	100	.	.
COc1ccc(CNC(=O)c2oc3ccc(S(=O)(=O)N4CCOCC4)cc3c2C)cc1	-11	104	115	86
Cc1ccccc1OCC(O)CN(Cc1ccccc1O)C1CCCCC1 (centres undefined)	-30	.	102	59
Cc1cc(C)c2c(n1)nn1c(C)c(CCC(=O)O)c(C)nc21	.	102	89	90

Full records, looked up by structure. Screens in order: HCMV NEC inh | GIV Gai3 FP | Sa growth 42C | Sa growth 42C second temp
Cc1cc(C)c2c(n1)nn1c(C)c(CCC(=O)O)c(C)nc21 reads . | 102 | 89 | 90
CN1C(=O)c2cc(NC(=O)c3ccc4c(c3)OCO4)ccc2N2CCN=C12 reads -33 | 100 | . | .
COc1ccc(CNC(=O)c2oc3ccc(S(=O)(=O)N4CCOCC4)cc3c2C)cc1 reads -11 | 104 | 115 | 86
Cc1noc(C(=O)N2CCCc3ccccc32)c1Cl reads . | 102 | 114 | 98
O=C(OCCN1C(=O)c2cccc3c(N4CCOCC4)ccc(c23)C1=O)c1ccc([N+](=O)[O-])cc1 reads -10 | 113 | . | .

(list continues)
SMILES	HCMV NEC inh	GIV Gai3 FP	Sa growth 42C	Sa growth 42C second temp
COc1ccccc1C1CC(=O)Nc2c1c(-c1ccccc1)nn2-c1ccccc1 (centres undefined)	-2	107	.	.
CC(C)(Oc1ccc(C#N)cc1)C(=O)Nc1ccccc1	3	103	103	92
COc1cc(=O)n(-c2ccccc2C)nc1C(=O)Nc1ccc(Br)cc1	-9	104	.	.
COc1cccc(-c2nc(C(N)=O)c3[nH]c(=O)n(CC4CCCO4)c3n2)c1O (centres undefined)	-32	103	.	.
O=C(NC1CCN(Cc2ccccc2)CC1)C1CCN(c2nccc(C(F)(F)F)n2)CC1	.	106	107	87
Cc1ccc(N(C)C(=O)[C@H]2[C@@H]3C[C@@H]4[C@H]2C(=O)O[C@@H]4C3)cc1	.	101	92	89
CCOC(=O)c1sc(N(Cc2ccccc2)C(=O)CSc2n[nH]c(N)n2)nc1C	20	.	118	97
COc1ccc(OC)c(CNc2nc3ccccc3c3nnc(C)n23)c1	-21	100	106	87
COc1ccc(OC)c(CCNC(=O)NCc2noc3ccc(C)cc23)c1	-33	101	89	92
CCSc1nc2c(c(=O)n1C1CCCC1)C1(CCCC1)Cc1ccccc1-2	10	107	.	.
CCOc1ccccc1CNc1nc2nc(C)c(CC(=O)OC)c(=O)n2[nH]1	0	102	107	95
COc1cccc(NC(=O)c2ccc(CNS(=O)(=O)c3ccc4c(c3)C(C)(C)C(=O)N4C)cc2)c1	.	104	95	90
Cn1c(=O)c(-c2noc(C(=O)N3CCN(C4CCCCC4)CC3)n2)nn(-c2ccccc2)c1=O	-123	100	.	.
COc1ccc(CNC(=O)c2cc3c(s2)-c2ccccc2OC3)cc1	-13	103	90	89
CCOC(=O)c1c(NC(=O)CSc2nncs2)sc2c1CCC2	-18	.	98	89
Cc1ccc2nc(COc3ccccc3NC(=O)C(C)(C)C)cc(=O)n2c1	.	104	89	88
Cc1ccc(NS(=O)(=O)c2c(C)ccc3nsnc23)cc1	-49	.	93	83
O=C(Sc1c(Cl)cccc1Cl)N1CCOCC1	5	103	103	106
CC(=O)Nc1ccc(-c2csc(Nc3ccccc3C)n2)cc1	-19	.	82	66
Cc1ccc(CNC(=O)C2CCC(CNc3nc(=S)[nH]c4ccccc34)CC2)cc1 (centres undefined)	.	102	112	79
CNC(=S)N(C)CC(=O)Nc1c(Cl)cccc1Cl	-16	.	44	2
CCOC(=O)c1noc(N)c1C#N	2	104	103	80
COC(=O)c1cc(-c2cncnc2-c2ccc(OC)c(C)c2O)c(C)o1	-11	.	92	81
COc1ccc(-c2cc(C(=O)NCc3ccccc3)no2)cc1	-3	99	86	91
COc1ccc(NC(=O)C2C3NC(=S)NC2(C)Oc2ccccc23)cc1 (centres undefined)	-8	103	97	94
NC(=O)CN1C(=O)c2ccccc2S1(=O)=O	-1	101	.	.
COC(=O)c1noc(C(=O)OC)c1OCC(=O)c1cc(C)n(Cc2ccccc2Cl)c1C	-7	.	94	97
CCN(CC)S(=O)(=O)c1nnc(NC(=O)COc2ccc(C)cc2)s1	10	100	95	80
COC(=O)c1sc(N)c(C(=O)OC)c1C	-3	90	64	74
O=C(Nc1cccc(Cl)c1)N1CCC(n2nnc3cc(F)ccc32)CC1	-1	109	106	93
N/C(CSc1nc(SC/C(N)=N\O)ns1)=N\O	-12	110	97	95
O=C(CSCCOc1ccccc1)N1CCCC1	-10	103	97	99
CCNC(=S)N1CCN(Cc2ccccc2)CC1	9	103	87	109
CCCc1cc(=O)[nH]c(Nc2ccc(CC)cc2)n1	.	101	98	92
CC(C)=C=CCC(C)O (centres undefined)	9	107	104	75
Cc1nc(SCC(=O)Nc2ccc(S(=O)(=O)N3CCOCC3)cc2)n(C2CCCCC2)c1C	2	.	111	100
CCC(C)NC(=O)CC1CCN(C(=O)C2CCCCC2)CC1 (centres undefined)	7	104	.	.
NC(=O)C[n+]1ccc(/C=N/O)cc1	-80	108	88	84
C=CCN1C(=O)C(=O)/C(=C(\O)c2ccccc2)C1c1ccc(OC)cc1 (centres undefined)	-10	.	92	95
COc1ccccc1-c1nnc(C2CCN(S(=O)(=O)c3ccc(C4CCCCC4)cc3)CC2)o1	4	106	.	.
CCC(=O)N1CCc2cc(CNC(=O)c3cccc(N(C)C)c3)ccc21	.	103	120	86
Cc1cc(N2CCN(C)CC2)n2nc(C(F)(F)F)c(-c3ccc(F)cc3)c2n1	-15	95	.	.
COc1cc2c(cc1OC)C1=C(C#N)CN(C3CCCCC3)CN1CC2	-28	102	93	83
O=S(=O)(c1ccc(Br)cc1)N(Cl)Cl	-12	.	93	89
Cc1nc(NC2CCCC2)c2c(C)noc2n1	-23	100	.	.
COCCN(C(=O)c1cc2ccccc2o1)C1(C(=O)Nc2ccccc2)CCN(C(C)C)CC1	8	.	111	96
N#Cc1ccccc1CS(=O)(=O)N1CCN(S(=O)(=O)/C=C/c2ccccc2)CC1	-14	.	111	86
CN(C)c1ccc(/C=C2/Oc3c(ccc(O)c3O)C2=O)cc1	-53	.	56	36
COC(=O)c1csc(S(=O)(=O)N2CCCC2)c1OC	-9	100	97	87
Cc1cc(C)cc(N2C(=O)CC(c3ccc(C(F)(F)F)cc3)C3=C2COC3=O)c1 (centres undefined)	-2	106	103	95
The listing continues.
SMILES	HCMV NEC inh	GIV Gai3 FP	Sa growth 42C	Sa growth 42C second temp
CC(C)(C)c1ccc(NC(=O)CSc2ccccn2)cc1	-5	96	97	68
CCOc1cccc(CNCCNC(=O)c2nonc2N)c1	9	102	86	97
COc1ccc(OCC(=O)Nc2cccc(C(=O)OCc3cc(=O)n4nc(C)sc4n3)c2)cc1	.	108	89	74
C=CCSc1nc2ccccc2c2nc(-c3ccncc3)nn12	-1	103	.	.
COc1ccc(CNC(=O)c2cnc3sc(N4CCCC4)nn3c2=O)cc1OC	.	99	89	91
CCCc1cc(=O)oc2n[nH]c(C)c12	5	108	87	94
CCOC(=O)C1CCCN(C(=O)c2ccc3c(c2)N(Cc2cccc(Cl)c2)C(=O)c2ccccc2S3(=O)=O)C1 (centres undefined)	.	102	129	98
Cc1ccc(C)c(CN2CCCN(Cc3ccc(F)cc3)S2(=O)=O)c1	.	101	92	94
CCOc1ccc2c(c1)sc(=NC(=O)CN1C(=O)CCC1=O)n2C	-19	97	99	59
Cc1nnc(-c2ccccc2)[nH]c1=O	-1	95	.	.
COc1cc(NC(=O)c2nc3ccccc3nc2N2CCCCC2)cc(OC)c1OC	-32	109	112	85
O=C(NCCSCc1ccco1)c1ccc2c(c1)S(=O)(=O)c1ccccc1C2=O	-62	.	80	89
COc1ccc(Cc2nnc3c4cnn(-c5ccc(C)cc5)c4ncn23)cc1	10&-9	104&99	102	89
CCOc1ccc(-n2cnnn2)cc1S(=O)(=O)N1CCCCC1	-22	95	95	78
Nc1ccccc1SCc1ccccc1	-7	.	91	99
c1cc(-c2nc3cc(Cc4ccc5oc(-c6ccncc6)nc5c4)ccc3o2)ccn1	-35	103	91	84
CCc1nc(-c2cccc(NC(=O)c3cncc(Br)c3)c2)no1	-3	101	.	.
CCN(CC)c1ccc(CN2CCc3ccccc3C2)cc1	3	108	99	99
CCOc1ccc2oc(C)c(C(=O)Nc3ccc(OC)cc3OC)c2c1	-10	104	.	.
N#Cc1c(SCc2ccccc2Cl)nc2c(c1C(F)(F)F)CCc1occc1-2	.	106	130	81
CN(C)C(=O)COc1ncnc2ccc(Br)cc12	6	.	104	98
C=CCSc1nc2ccc(N=Cc3cc(Cl)ccc3O)cc2s1	.	87	120	94
CCOc1ccccc1NC(=O)c1nnn(CC(=O)Nc2ccc(OC)c(OC)c2)c1N	.	98	82	88
O=S(=O)(Cc1ccccc1)NC1COc2ccccc2C1 (centres undefined)	-6	105	.	.
CSc1nnc(-c2ccc(SC#N)cc2)o1	6	97	.	.
CCSc1nc2ccccc2n1C(=O)CCC(=O)O	-15	.	83	89
O=C(Nc1cccc(C(=O)OCc2cc(=O)n3nc(C4CC4)sc3n2)c1)c1cccc(F)c1	.	98	63	92
Cc1c(C)n(Cc2ccccc2)c2ccc(C(=O)NCCc3ccccc3Cl)cc12	.	102	100	99
Cc1ccc2c(c1)NC(=O)C(CC(=O)O)O2 (centres undefined)	3	108	.	.
Cc1ccccc1NC(=O)CSCn1nnc2c(=O)[nH]c(Cc3ccc(F)cc3)nc21	-32	101	103	89
O=C(COc1ccc(Cl)cc1)Nc1ccc(Cn2ccnc2)cc1	-34	101	66	63
CCN(C(=O)c1cc2c(s1)-c1ccccc1OC2)c1cc(Cl)ccc1OC	-9	101	103	90
Cc1ccc(CCNC(=O)CCS(=O)(=O)c2ccc3c(c2)CC(C)N3C(=O)C2CC2)cc1 (centres undefined)	-3	105	.	.
CCCOc1ccc(C(=O)Nc2ccc(-c3cc4ccccc4oc3=O)c(C)c2)cc1	-38	103	101	91
COc1cccc(-c2nc(C(N)=O)c3c(n2)n(-c2ccc4c(c2)OCO4)c(=O)n3C)c1OC	.	100	92	86
Cc1cccc(N(C)c2nc3ccccc3n3c(C)nnc23)c1	-21	102	83	84
N#CCN(CC#N)C(=O)c1cccc(C(=O)N(CC#N)CC#N)c1	-9	.	89	80
Cc1nc(C(F)(F)F)ccc1C(=O)NC1CCCCNC1=O (centres undefined)	-4	102	80	92
Cc1nn(-c2ccccc2)c2c1C(C(F)(F)F)(C(F)(F)F)N=C(N1CCOCC1)O2	.	98	87	94
CC(C)Cn1c(SCC(=O)Nc2ccccc2)nc2ccccc21	-33	.	78	82
CC1=C(C(=O)NC(C)c2ccc3c(c2)OCCO3)C2(CCC(C)CC2)OC1=O (centres undefined)	4	104	84	92
O=c1onc2n1-c1cc(Br)ccc1OC2	-5&-5&-24	91	.	.
CC(C)c1ccc(NC(=O)c2ccc3oc(=O)c(S(=O)(=O)c4ccc(F)cc4)cc3c2)cc1	-26	98	91	88
Cc1ccc(CSCC(=O)N2CCN(c3cc(Cl)ccc3C)CC2)cc1	.	101	91	64
Cc1cc2nc(CSc3nc4ccc(NC(=O)c5ccccc5)cc4s3)cc(=O)n2o1	-10	100	.	.
